# RN4220 kill: growth inhibition of S. aureus RN4220, primary screen, OD600 | 16 h | inhibition, % (no concentration beside the values) | actives 0.33% (n = 330,000);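 active = z-score of -3 or lower and OD600 up to 0.18 on both plates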;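 note: plate controls were untreated cells for no effect and reference antibiotic for full effect; stock transfer was 100 nL into about 80 µL; one replicate is shown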
# Autofluor counter: flagged as autofluorescent in microsphere protease counterscreen. compound autofluorescence counterscreen, microsphere flow cytometry; stronger effect = higher value. fluorescence intensity (concentration not given with the values). AID 624483. actives 3.1% (n = 360,000);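 active = at least 3 SD above the mean of all compounds, about 16000 in these data; inconclusive = too few beads counted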;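 note: 100 nL of 1 mM stock went into each well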
# Mtb hypoxia inh: PubChem AID 1159583; fluorescence inhibition, % (concentration not given with the values); M. tuberculosis hypoxia-regulated fluorescent reporter, fluorescence; actives 0.1% (n = 300,000);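 active = 35 to 45% if threefold the growth effect, above 45% if 1.5-fold the growth effect; inactive = the rest, general growth blockers included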;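 note: wells of about 50 µL received 100 nL stock; 0% = vehicle wells and 100% = reference inhibitor wells; whole bacteria with a GFP reporter of the hypoxia response; strong numbers were not always called active; many hits fall short of the cut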
# BJeLR lethal: MLPCN primary cell-based screen for lethality selective to Ras in HRASV12 cells; BJeLR (HRASV12) viability, CellTiter-Glo ATP luminescence, 48 h; reference of the scale not given here; inhibition, % (test concentration not listed); actives 0.17% (n = 300,000); AID 1554, 2009;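 active = replicate mean above 50%; inconclusive = above 50% but judged a plate artefact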;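 note: 50 nL library stock added to about 25 µL; numbers are from one replicate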
# Sa ugtP lethal: growth inhibition of ugtP-null S. aureus, primary screen, RN4220 ugtP deletion, OD600 | 16 h; some inactives read as strong as hits | growth inhibition, % (concentration not given with the values) | actives 0.54% (n = 330,000);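 active = z-score under -3 and OD600 up to 0.15 on both plates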;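 note: plate controls were untreated wells for no effect and antibiotic for full effect; wells of about 80 µL received 100 nL stock; the first replicate is given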
# PrP UTR inh: inhibition of PrP 5' UTR reporter expression | cell-based PrP 5' UTR mRNA reporter, plate reader | inhibition, % (no concentration beside the values) | actives 0.35% (n = 340,000) | AID 488862, 2010;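 active = every replicate at 50% or more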;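 note: 0 = median of the neutral control wells; tested in H4 reporter cells; numbers are from one replicate; inactives centre near -14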
# Mtb hypoxia inh growth: further read-out of Mtb hypoxia inh, marked with its call; growth inhibition, %; measured here: M. tuberculosis growth (absorbance);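 0% = vehicle and 100% = reference antibiotic; read after six days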
# * hit, by the source's call; ? = inconclusive; . = not tested or not shown; & = joins results of further samples.
no.	mol	RN4220 kill	Autofluor counter	Mtb hypoxia inh	Mtb hypoxia inh growth
1	COc1ccc(Cc2nnc(SCC(=O)N3CCN(c4ccccc4)CC3)o2)cc1	0.6	10740	10	3
2	CCCn1c(N)c(C(=O)CSc2nnc3n2CCCCC3)c(=O)[nH]c1=O	4.6	3881	23	8
3	CC1(C)Cc2c(C#N)c(OCC(=O)c3ccc(Cl)cc3)nc(-c3ccoc3)c2CO1	5.7	2269	13	7
4	Cc1ccc(C)c(NC2=NCC(=O)N2c2ccc3c(c2)OCCO3)c1	-0.8	3696	0	0
5	Cc1ccc(-c2[nH]ncc2C=Nn2c(COc3ccccc3C)nc3ccccc3c2=O)cc1	19	.	2	0
6	Cc1ccc(-n2c(=O)cc(N3CC(C)CC(C)C3)[nH]c2=O)cc1 (configuration not stated)	3.7	9854	3	3
7	CCOc1ccc(NC(=O)Nc2cc(C(=O)O)ccc2N2CC3CC(C2)c2cccc(=O)n2C3)cc1 (configuration not stated)	0.2	6073	3	1
8	COCCn1c(SCc2nc3ccccc3s2)nc2ccccc21	3.0	7689	2	-2

no.	BJeLR lethal	Sa ugtP lethal	PrP UTR inh
1	0	0	5
2	.	2	-13
3	1	-4	-1
4	4	-10	-18
5	.	-2	.
6	1	5	-19
7	1	1	-11
8	2	3	-35

# Further structures follow.
no.	mol	RN4220 kill	Autofluor counter	Mtb hypoxia inh	Mtb hypoxia inh growth
9	CCO/C([O-])=N/c1c[n+](N2CCOCC2)no1	.	5942&6118	.	.
10	O=C(CCl)NNc1nc(-c2ccccc2)c2cc(Cl)ccc2n1	2.8	4154	-11	2
11	O=C(CCS(=O)(=O)c1ccc(Br)cc1)N1CCN(c2ccc(F)cc2)CC1	1.4	6558	-11	-2
12	O=C(c1cc(COc2ccc(F)cc2Cl)on1)N1C[C@H]2CC[C@H]1C2	9.5	4374	6	4
13	COc1ccc(NC(=O)C2CCC(C(C)(C)C)CC2)cc1S(=O)(=O)N1CCOCC1 (configuration not stated)	-4.2	2839	0	-4
14	CCOC(=O)N1CCN(C(=O)CN2C(=O)c3ccccc3S2(=O)=O)CC1	0.8	5438	-3	3
15	Cc1cc(C)cc(-c2nnc(SCC(=O)c3ccc4c(c3)OCCO4)o2)c1	2.9	12322	9	9
16	CCn1c(SCC(=O)N/N=C(\C)c2ccco2)nnc1-c1ccccc1	.	2421	.	.

no.	BJeLR lethal	Sa ugtP lethal	PrP UTR inh
9	3	.	-18&-18
10	0	1	2
11	-1	3	1
12	-2	6	-18
13	.	-11	12
14	6	8	-14
15	-6	5	-18
16	-6	.	-17

# (continued)
no.	mol	RN4220 kill	Autofluor counter	Mtb hypoxia inh	Mtb hypoxia inh growth
17	COc1ccc(Cl)cc1NC(=O)C1(c2cccs2)CCOCC1	1.9	6088	15	19
18	Cc1ccc(NC(=O)c2ccc(N/N=C/c3cccc(O)c3)c([N+](=O)[O-])c2)cc1	.	2691	.	.
19	CC(=O)NNC(=O)c1sc(=S)n2c1[nH]c(=O)c1sccc12	4.5	4124	-5	10
20	O=C1c2ccccc2NC(c2ccccc2F)N1NS(=O)(=O)c1ccccc1 (configuration not stated)	6.9	4146	3	0
21	CCC(C(=O)NC(C)(C)C)N(C(=O)Cn1nnc(-c2cccs2)n1)c1cnc2ccccc2c1 (configuration not stated)	0.5	3244	4	6
22	CC1CN(Cc2nc3c(c(=O)[nH]c(=O)n3C)n2CC(N)=O)CC(C)O1 (configuration not stated)	6.0	6069	10	7
23	CN(C=[N+](C)C)c1cccc2c1C(=O)c1ccccc1C2=O	22	2360	-25	-2
24	O=S(=O)(c1ccccc1)c1cnc(-c2cccnc2)nc1-c1ccc(Cl)c(Cl)c1	9.8	17469*	5	3

no.	BJeLR lethal	Sa ugtP lethal	PrP UTR inh
17	2	14	-7
18	11	.	-4
19	-3	-1	-15
20	5	7	-2
21	-6	8	-16
22	-15	14	-9
23	-6	8	-21
24	3	-13	-12

# Remaining list, next part.
no.	mol	RN4220 kill	Autofluor counter	Mtb hypoxia inh	Mtb hypoxia inh growth
25	CN(Cc1ccccc1Br)C(=O)CN1C(=O)NC2(CCCCCC2)C1=O	3.1	4264	19	8
26	CCNC(=O)c1c(O)c2c([nH]c1=O)CCCC2	4.4	5139	11	18
27	COc1ccc(C/C(C)=N/NC(=S)Nc2ccccc2F)cc1	.	3892	.	.
28	O=[N+]([O-])c1ccc(O)c(/C=N/Nc2ccccc2[N+](=O)[O-])c1	.	3542	.	.
29	CCCCN1CC[C@H]2C=CC[C@@H](C(=O)Nc3ccc(Cl)cc3Cl)[C@H]2C1=O	.	3653	.	.
30	C=C(C)C1CC=C(C)C(=NNC(=O)COc2ccccc2Cl)C1 (configuration not stated)	4.3	.	0	5
31	COc1ccc(CN(C)C(=O)c2cc(S(=O)(=O)NCc3ccccc3)ccc2C)c(OC)c1	6.3	9024	9	1
32	CCC(=O)OCC(=O)Nc1ccc2c(c1)OCO2	1.6	4992	6	11

no.	BJeLR lethal	Sa ugtP lethal	PrP UTR inh
25	.	-5	-33
26	4	7	-13
27	8	.	-17
28	5	.	-24
29	2	.	-7
30	.	-3	.
31	.	3	-25
32	-1	3	-29

# (next part)
no.	mol	RN4220 kill	Autofluor counter	Mtb hypoxia inh	Mtb hypoxia inh growth
33	COc1ccc(CNn2c(-c3cccc(C)c3)nc3ccccc3c2=O)cc1OC	5.0	5924	7	-1
34	COc1ccc(NC(=O)CC(=O)Nc2ccc(OC)cc2)cc1	2.2	4455	-1	8
35	O=C(NCCN1CCOCC1)C(=O)NCC1OCCCN1S(=O)(=O)c1ccc(F)cc1 (configuration not stated)	-0.4	5678	12	-8
36	Cc1nn(-c2ccccc2)c(Cl)c1C(=O)N1CCN(c2ncnc3c2cnn3-c2ccccc2)CC1	-13	2341	25	-14
37	Cc1ccccc1NC(=O)COC(=O)c1ccccc1SCC(=O)N1CCCC1	1.4	5353	8	12
38	COc1cc(C(=O)OCC(=O)Nc2cccc(S(=O)(=O)N3CCCC3)c2)ccc1OCC(C)C	2.1	?	-2	1
39	O=C(NCc1ccccn1)c1ccc(NS(=O)(=O)c2cccc(Cl)c2)cc1	6.5	5897	5	-4
40	CC(=O)Oc1ccc(/C=N/NS(=O)(=O)c2ccc(C)cc2)c(OC(C)=O)c1	.	4085	.	.

no.	BJeLR lethal	Sa ugtP lethal	PrP UTR inh
33	-10	7	4
34	-9	-1	-3
35	6	4	-17
36	7	-7	10
37	-2	1	-20
38	-3	4	-13
39	4	4	-41
40	1	.	-19

# New compounds follow:
no.	mol	RN4220 kill	Autofluor counter	Mtb hypoxia inh	Mtb hypoxia inh growth
41	O=C(C(=O)N1CCCc2ccccc21)c1cn(CC(=O)N2CCOCC2)c2ccccc12	9.8	4357	0	10
42	CCc1cccc(CC)c1N(COC)C(=O)Cn1cnc2ccccc21	3.3	6112	4	9
43	COc1ccc(C(C(=O)NC2CCCCC2)N(C(=O)c2ccco2)c2ccccc2C(C)=O)cc1 (configuration not stated)	-0.4	2928	7	-2
44	Cc1ccc(S(=O)(=O)N2[C@@H](c3ccc4c(c3)OCO4)C(C(=O)O)=C[C@H]2C(C)(C)C)cc1	4.8	3658	4	7
45	COc1ccc(-c2nnc(SC(C)C(=O)Nc3ccc4c(c3)OCCO4)o2)cc1 (configuration not stated)	5.7	9211	8	1
46	NC(=O)CN(C/C=C/c1ccccc1)C/C=C/c1ccccc1	-0.6	3357	8	-1
47	COC(=O)c1cc2c(C(F)(F)F)nn(C)c2s1	4.6	6048	17	1
48	Cc1csc2c(C#N)c(=O)c3c(n12)CCC3	2.6	10242	-1	-5

no.	BJeLR lethal	Sa ugtP lethal	PrP UTR inh
41	.	3	-8
42	-11	-2	.
43	-2	0	3
44	.	-3	-9
45	-9	4	-66
46	-11	2	-23
47	-7	16	-36
48	2	7	-7

# The list goes on:
no.	mol	RN4220 kill	Autofluor counter	Mtb hypoxia inh	Mtb hypoxia inh growth
49	CC(CNC(=O)CCC(=O)N1CCOc2ccccc21)c1ccccc1 (configuration not stated)	-6.3	4380	5	4
50	N=c1n(CCN2CCOCC2)c2ccccc2n1CC(=O)c1ccc(Cl)c(Cl)c1	-1.3	5783	10	19
51	COc1cc([N+](=O)[O-])ccc1NC(=S)Nc1cccc(C(=O)O)c1	3.8	8988	8	-3
52	NC(=O)C1CCN(C(=O)CN(C2CCCCC2)S(=O)(=O)c2ccc(F)cc2)CC1	3.8	5819	13	1
53	CCN(CC)S(=O)(=O)c1cccc(C(=O)NN=Cc2ccccn2)c1	7.2	.	12	8
54	CNC(=O)C1=C(C)NC(=S)NC1c1cccs1 (configuration not stated)	2.8	2223	6	13
55	COc1ccc(-c2cc(C(=O)N3CCCC3)no2)cc1	3.2	6204	14	5
56	COc1ccc(-c2cnnc(NN=Cc3ccc(O)c(O)c3)n2)cc1	9.8	.	19	4

no.	BJeLR lethal	Sa ugtP lethal	PrP UTR inh
49	3	13	-2
50	-4	-14	-35
51	-4	4	-20
52	2	3	-6
53	.	5	.
54	-2	3	-33
55	3	8	-27
56	.	-5	.

# New compounds follow
no.	mol	RN4220 kill	Autofluor counter	Mtb hypoxia inh	Mtb hypoxia inh growth
57	Cc1cc([N+](=O)[O-])ccc1N=Nc1c(N)[nH]n(-c2ccccc2)c1=O	12	4650	8	3
58	CC1CCCC(C)N1CC(C)(C)NS(=O)(=O)c1ccc(Cl)cc1 (configuration not stated)	7.6	9270	12	14
59	Cc1cc(=O)c2cc(C(=O)c3ccccc3)ccc2[nH]1	6.0	4269	14	10
60	Cc1nc(NC(=O)C2CC2)sc1C(=O)Nc1ccccc1Cl	2.8	3103	7	-4
61	c1ccc(C2(CNc3ccccn3)CCCC2)cc1	7.3	13034	-8	1
62	COc1ccc(C2C(C#N)=C(N)OC3=C2C(=O)CCC3)cc1OC (configuration not stated)	5.4	4497	10	2
63	O=S(=O)(Cc1ccco1)Cc1nc(-c2ccc(Cl)cc2)cs1	-0.6	.	7	-5
64	COc1ccc(CCNC(=O)[C@@H]2C[C@H]2c2ccccc2)cc1OC	1.7	3404	7	4

no.	BJeLR lethal	Sa ugtP lethal	PrP UTR inh
57	5	-2	-27
58	5	-6	-6
59	2	1	-28
60	4	2	-41
61	4	1	-14
62	1	-2	-23
63	3	5	.
64	8	2	-29

# New compounds follow:
no.	mol	RN4220 kill	Autofluor counter	Mtb hypoxia inh	Mtb hypoxia inh growth
65	Cc1cc(C)c2c(N)c(S(=O)(=O)c3ccccc3)sc2n1	1.8	4663	.	.
66	O=C(NCc1ccco1)C1CC(c2ccc(Cl)c(Cl)c2)=NO1 (configuration not stated)	-0.4	3914	2	5
67	CN(CC(=O)Nc1ccc(F)c(F)c1F)C(=O)c1ccc(N2CCCC2=O)cc1	1.7	2887	3	9
68	CCC(=O)Nc1cccc(NC(=O)c2cccc([N+](=O)[O-])c2)c1	4.0	8434	7	5
69	COc1cccc(C=NNC(=O)Cn2nc([N+](=O)[O-])cc2C)c1	4.0	.	3	8
70	COc1ccc(N(CC(=O)N2CCc3ccccc3C2)S(C)(=O)=O)cc1Cl	5.0	3664	3	5
71	CSc1ncccc1C(=O)NC1CC(C)(C)Cc2c1cnn2-c1ccccc1C (configuration not stated)	1.7	5837	8	6
72	CCn1nnc2cc(C(=O)Nc3cc(OC)cc(OC)c3)ccc21	0.6	?	0	8
73	CCOCCOC(=O)COc1ccc(N2C(=O)c3ccccc3C2=O)cc1	3.2	.	3	11

no.	BJeLR lethal	Sa ugtP lethal	PrP UTR inh
65	2	3	-14
66	-1	3	-34
67	.	1	-41
68	-5	2	-18
69	.	6	.
70	-3	11	-24
71	-6	13	-24
72	6	4	-23
73	1	-6	.

# Sorted by length of the SMILES (smallest number first): some entries from above.
no.	mol	RN4220 kill	Autofluor counter	Mtb hypoxia inh	Mtb hypoxia inh growth
65	Cc1cc(C)c2c(N)c(S(=O)(=O)c3ccccc3)sc2n1	1.8	4663	.	.
66	O=C(NCc1ccco1)C1CC(c2ccc(Cl)c(Cl)c2)=NO1 (configuration not stated)	-0.4	3914	2	5
71	CSc1ncccc1C(=O)NC1CC(C)(C)Cc2c1cnn2-c1ccccc1C (configuration not stated)	1.7	5837	8	6
68	CCC(=O)Nc1cccc(NC(=O)c2cccc([N+](=O)[O-])c2)c1	4.0	8434	7	5
70	COc1ccc(N(CC(=O)N2CCc3ccccc3C2)S(C)(=O)=O)cc1Cl	5.0	3664	3	5
67	CN(CC(=O)Nc1ccc(F)c(F)c1F)C(=O)c1ccc(N2CCCC2=O)cc1	1.7	2887	3	9

no.	BJeLR lethal	Sa ugtP lethal	PrP UTR inh
65	2	3	-14
66	-1	3	-34
71	-6	13	-24
68	-5	2	-18
70	-3	11	-24
67	.	1	-41

# Assay outcomes: PubChem, several laboratories
